Methyltransferases: Primary Screen for Target Class Profiling of Small Molecule Inhibitors of Methyltransferases | actives 3.9% (n = 25,000) | calls only at 40 µM | purified enzyme, MTase-Glo SAH luminescence; active compounds read low | AID 1745853, 2022; active = -50% or lower on at least one of six enzymes; inconclusive = the cases between; inactive = as a rule above -30% on all six;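 also: enzymes were COMT GAMT GNMT HNMT NNMT and PNMT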
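Each enzyme was reacted with SAM and its substrate, with compounds tested once at 40 uM; SAH formed was read by MTase-Glo luminescence.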
Calls only; i = inactive; u = inconclusive; + = active, no number. % is scaled to controls: 0 for no effect and ±100 for the full control effect. Only part of the results is shown; rates above refer to the full screens.

SMILES | Methyltransferases
CC(C)CCn1c(=O)c2ccccc2n2c(=O)n(CC(=O)N3CCN(c4ccc(F)cc4)CC3)nc12 | i
COCC(=O)N[C@@H]1CCC[C@@H](C(=O)NC2CC2)CC(=O)N(C)C1 | i
COc1ccccc1CNC(=O)c1ccc2c(=O)nc3c(-c4cccc(C)c4)n[nH]n3c2c1 | i
CCCn1nc2c(c1C)C(c1ccc(OCC(N)=O)c(Cl)c1)CC(=O)N2 (centres undefined) | i
Cc1ccc([C@@H]2CN(C(=O)CN3CCOC3=O)C[C@H]2NC(=O)C2CC2)cc1 | i
CCCCN1C(=O)c2cc(C(=O)Nc3cc(C)ccc3OC)nn2CC1(C)C(=O)NC1CCCC1 (centres undefined) | i
CCCCN(CC)CCN1C(=O)c2ccc(-c3ccco3)n2CC1(C)C(=O)NC1CCC(C)CC1 (centres undefined) | i
O=C(CCC(=O)n1ncc2ccc(Cl)cc21)N1CCN(c2ccccc2)CC1 | i
Cc1ccc(C)c(N2C(=O)c3cc(-c4ccco4)nn3CC2(C)C(=O)NC2CCCCC2)c1 (centres undefined) | i
Cn1cc([C@@H](NC(=O)c2ccc3c(c2)CCCC3)C2CC(O)C2)cn1 (some centres undefined) | i
CC1(C(=O)NC2CCCCC2)Cn2c(cc3sccc32)C(=O)N1Cc1cccc(F)c1 (centres undefined) | i
COc1ccc(-c2noc(-c3cccn3CC(=O)Nc3cccc(Cl)c3C)n2)cc1F | i
Cc1nc(C(C)C)sc1C(=O)N1C[C@@H](C)[C@](O)(C2CCC2)C1 | i
CC(c1cccs1)N(C)Cc1ccncc1 (centres undefined) | i
CC(C)C[C@H](NC(=O)[C@@H](NC(=O)c1cccc(-c2ccccc2)n1)[C@@H](C)O)B(O)O | i
COc1ccc(S(=O)(=O)N2CCC3(CCCCO3)CC2)cc1 | i
COc1ccc(CN2C(=O)c3cc4sccc4n3CC2(C)C(=O)NC2CCCC(C)C2C)cc1 (centres undefined) | i
O=S(=O)(c1ccccc1)c1nnn2c1nc(N1CCN(Cc3ccccc3)CC1)c1ccccc12 | i
CCc1cc2c(cc3n2CC(C)(C(=O)NC2CCCCC2)N(c2ccc(C)cc2C)C3=O)s1 (centres undefined) | i
COc1ccc(-c2cc3n(n2)CC(C)(C(=O)NCc2ccccc2)N(c2cc(OC)cc(OC)c2)C3=O)cc1 (centres undefined) | i
O=C(Nc1ccccc1)N1CCC(N(C(=O)C2CC2)C2CCOCC2)CC1 | i
O=C(O)/C=C/c1ccc(O)c(O[C@@H]2O[C@H](CO)[C@@H](O)[C@H](O)[C@H]2O)c1 | i
CCCN1C(=O)c2c(C(=O)NCc3ccc(Cl)cc3)ncn2CC1(C)C(=O)NCCC(C)C (centres undefined) | i
NC1CCN(O)C1=O (centres undefined) | i
Cc1cc2c(cc3n2CC(C)(C(=O)NC2CCCCC2)N(C2CCCCC2)C3=O)o1 (centres undefined) | i
Cc1ccc(CN2CCOCCNC(=O)[C@H]3CCCC[C@H]32)s1 | i
CC(C)=CCC[C@](C)(O[C@@H]1O[C@H](CO[C@@H]2O[C@@H](CO)[C@H](O)[C@H]2O[C@@H]2OC[C@@H](O)[C@H](O)[C@H]2O)[C@@H](O)[C@H](O)[C@H]1O)[C@H]1CC[C@]2(C)[C@@H]1[C@H](O)CC1[C@@]3(C)CC[C@H](O[C@@H]4O[C@H](CO)[C@@H](O)[C@H](O)[C@H]4O[C@@H]4O[C@H](CO)[C@@H](O)[C@H](O)[C@H]4O)C(C)(C)C3CC[C@]12C (some centres undefined) | i
CCCn1cnc2c(NCc3ccc(C)s3)nc(N[C@H](CC)CO)nc21 | u
CCOC(=O)[C@@H]1CN([S+](=O)([O-])Cc2ccccc2)[C@H]2c3ccc(OC)cc3O[C@@H]12 | i
O=C(CCc1nnc2n(Cc3ccc(F)cc3)c(=O)c3ccccc3n12)NCCc1ccc(Cl)cc1 | i

Reprinted from the part before: 3 compounds; new compounds follow.
SMILES | Methyltransferases
CCCn1cnc2c(NCc3ccc(C)s3)nc(N[C@H](CC)CO)nc21 | u
CCOC(=O)[C@@H]1CN([S+](=O)([O-])Cc2ccccc2)[C@H]2c3ccc(OC)cc3O[C@@H]12 | i
O=C(CCc1nnc2n(Cc3ccc(F)cc3)c(=O)c3ccccc3n12)NCCc1ccc(Cl)cc1 | i
CC(=O)N1CCN(C(=O)c2nc(N)nc3c2CCCC3)CC(O)C1 (centres undefined) | i
CC(C)C(=O)N1CCC2(CCCCO2)CC1 | i
Cc1cc(F)ccc1NC(=O)c1cc2n(n1)CC(C)(C(=O)NC1CCCCC1)N(C)C2=O (centres undefined) | i
FC(F)Oc1ccccc1CN(CC1CCN(C2CCCC2)CC1)CC1CCCO1 (centres undefined) | i
Cn1c(=O)n(C)c2cc(S(=O)(=O)NCCCc3ccccc3)ccc21 | i
COc1cc(C(CO)C(OC2OC(CO)C(O)C(O)C2O)c2ccc(O)c(OC)c2)ccc1O (centres undefined) | i
Cc1ccc(C2Cn3nnc(C(=O)N4CCC(C(=O)NCCc5ccccc5)CC4)c3CO2)cc1 (centres undefined) | i
Cc1cnc(CCNC(=O)Cc2ccncc2)n1CC1CC1 | i
Cc1nnc(-c2cc(-c3cccc(O)c3)ccn2)n1CCc1ccccc1 | i
COCCCNC(=O)c1cnc2c(c1)N(C(=O)Cc1cn(C)c3ccccc13)CCC2 | i
CCCN1C(=O)c2c(C(=O)NCc3ccccc3OCC)ncn2CC1(C)C(=O)NCc1ccc(OC)cc1 (centres undefined) | i
CC(=O)Oc1ccc(C2Nc3c(C(=O)c4ccccc4)cc(Cl)cc3C3C=CCC32)cc1 (centres undefined) | i
O=C1CCCCC(Cc2ccccc2)(C(=O)NCc2ccc(F)cc2)N1 (centres undefined) | i
COCc1cccc(C(=O)N2CC[C@@]3(O)CCN(S(C)(=O)=O)C[C@H]3C2)n1 | i
COc1ccc(OC)c(CN2C(=O)c3cc4ccccc4n3CC2(C)C(=O)NCc2ccccc2)c1 (centres undefined) | i
CC(C)(O)/C=C/C(=O)[C@](C)(O)[C@H]1[C@H](O)C[C@@]2(C)[C@@H]3CC=C4[C@@H](C[C@H](O[C@@H]5O[C@H](CO)[C@@H](O)[C@H](O)[C@H]5O)C(=O)C4(C)C)[C@]3(C)C(=O)C[C@]12C | i
O=C(c1cnccn1)N1CCC(Oc2cccnc2)C1 (centres undefined) | i
CN(Cc1cc(C2CC2)n[nH]1)C(=O)C(c1ccc(F)cc1)N(C)C (centres undefined) | i
CCCn1c(=O)c2ccc(C(=O)NC(C)CC)cc2n2c(SCC(=O)c3ccccc3)nnc12 (centres undefined) | i
CC(=O)N1CCCCN(C(=O)c2cc(-c3ccccc3C(F)(F)F)nc3c2cnn3C)C1 | i
Cc1noc(C)c1[S+](=O)([O-])N1CCn2cc(C(=O)Nc3ccc(Cl)cc3Cl)nc2C1 | i
CCc1ccc(CNC(=O)c2ncn3c2C(=O)N(C2CC2)C(C)(C(=O)NCc2cccc(C)c2)C3)cc1 (centres undefined) | i
O=C(C1CC1)N1C[C@@H]2OCC(=O)N(CC3CC3)[C@@H]2C1 | i
CCCn1c(=O)c2ccc(C(=O)NC3CCCCC3)cc2n2c(=O)n(CC(=O)c3ccc(C)cc3)nc12 | i
CCOC(=O)C1CCN(C(=O)c2cn3ccnc(-c4ccc(C)cc4)c3n2)CC1 | i
CCC(=O)N1CCc2cc(Br)c(S(=O)(=O)NCCN3CCN(c4ccccc4F)CC3)cc21 | i
COc1ccc(CCN2C(=O)c3cc4ccccc4n3CC2(C)C(=O)NCCC(C)C)cc1OC (centres undefined) | i
COc1ccc(CCN2C(=O)c3ccc(-c4ccco4)n3CC2(C)C(=O)NCCC(C)C)cc1OC (centres undefined) | i
NC(=O)[C@@H]1CCCN1C(=O)c1ccc2oc(-c3cccc(F)c3)nc2c1 | i
Cc1ccc(N2C(=O)CSc3c(c4ccccc4n3C)C2C(=O)NCCC(C)C)cc1Cl (centres undefined) | i
CCOCCCN1C(=O)c2cc3sc(CC)cc3n2CC1(C)C(=O)NC1CCCCC1 (centres undefined) | i
C=C1C(=O)O[C@H](CCC)[C@H]1C(=O)O | i
COc1c2c(cc3c1-c1c(cc4c(c1OC)OCO4)CC(C)C(C)C3)OCO2 (centres undefined) | i
CN(Cc1ccccc1)c1ncnc2c1CCN(C(=O)[C@@H](N)CO)CC2 | i
COc1ccc(CNC(=O)c2cc3n(n2)CC(C)(C(=O)NCc2ccccc2)N(C)C3=O)cc1OC (centres undefined) | i
CC1CCC(NC(=O)C2(C)Cn3c(cc4sccc43)C(=O)N2Cc2cccnc2)CC1 (centres undefined) | i
Cc1nc(C2CC(O)C2)cc(N2CCN(C(=O)c3cccs3)CC2)n1 (centres undefined) | i
Cc1ccc(N2C(=O)c3cc4sccc4n3CC2(C)C(=O)NC2CCCCC2C)cc1 (centres undefined) | i
O=C(OCc1cccc(O)c1O[C@@H]1O[C@H](CO)[C@@H](O)[C@H](O)[C@H]1O)C1(O)C(=O)C2C=CC1C1C=CC(=O)C(O)(C(=O)OCc3cccc(O)c3O[C@@H]3O[C@H](CO)[C@@H](O)[C@H](O)[C@H]3O)C21 (some centres undefined) | i
CC1(C)CCC2(C(=O)OC3OC(COC4OC(CO)C(O)C(O)C4O)C(O)C(O)C3O)CCC3(C)C(=CCC4C5(C)CCC(OC6OCC(O)C(O)C6O)C(C)(C)C5CCC43C)C2C1O (centres undefined) | i
CC1(C(=O)NC2CCCCCC2)Cn2c(ccc2-c2ccco2)C(=O)N1Cc1cccc(Cl)c1 (centres undefined) | i
O=C(c1cccs1)N1CC[C@H]2COC(=O)N2c2cc(F)ccc2C1 | i
CC1(C(=O)NC2CCCCC2)Cn2c(ccc2-c2ccccc2)C(=O)N1Cc1ccccc1Cl (centres undefined) | i
OC1(CN2CCC(c3nc(-c4ccccc4)no3)CC2)CNCCOC1 (centres undefined) | i
CN1C(=O)c2cc(C(=O)NC3CCCCC3)nn2CC1(C)C(=O)NCc1ccc(F)cc1 (centres undefined) | i
Cc1ccc(-c2ncc[nH]2)cc1NC(=O)c1ccc(OCc2ccccn2)cc1 | i
Cc1ccc(S(=O)(=O)N2CCN(C3CCN(CCC(C)C)C3=O)CC2)cc1F (centres undefined) | i
CN1CCN(C(=O)c2cncc(N[C@H]3C[C@@H]4OCC[C@H]34)n2)CC1 | i
Fc1ccc(N2CCN(CCC3OCCc4ccccc43)CC2)cc1 (centres undefined) | i
CCCn1c(=O)c2ccccc2n2c(SCc3ccccc3C)nnc12 | i

Seven structures from above, arranged by count of non-hydrogen atoms, lowest first:
SMILES | Methyltransferases
O=C(c1cnccn1)N1CCC(Oc2cccnc2)C1 (centres undefined) | i
O=C(Nc1ccccc1)N1CCC(N(C(=O)C2CC2)C2CCOCC2)CC1 | i
O=C(CCC(=O)n1ncc2ccc(Cl)cc21)N1CCN(c2ccccc2)CC1 | i
CC1(C(=O)NC2CCCCC2)Cn2c(cc3sccc32)C(=O)N1Cc1cccc(F)c1 (centres undefined) | i
CCc1cc2c(cc3n2CC(C)(C(=O)NC2CCCCC2)N(c2ccc(C)cc2C)C3=O)s1 (centres undefined) | i
CC1(C(=O)NC2CCCCCC2)Cn2c(ccc2-c2ccco2)C(=O)N1Cc1cccc(Cl)c1 (centres undefined) | i
COc1ccc(-c2cc3n(n2)CC(C)(C(=O)NCc2ccccc2)N(c2cc(OC)cc(OC)c2)C3=O)cc1 (centres undefined) | i

(listing goes on)
SMILES | Methyltransferases
CN(C)c1ccc(CNC(=O)CCCn2ccc3cc(S(=O)(=O)N4CCCC4)ccc32)cc1 | i
CCC(C)/C=C(C)/C=C/C1=CC2=C(Cl)C(=O)C(C)(OC(C)=O)C(=O)C2=CN1CCCC(=O)O (centres undefined) | i
COC(=O)c1ccc(COc2ccc3c(-c4ccccc4)cc(=O)oc3c2C)o1 | i
CN(C)Cc1cc(C[C@@H]2CC[C@H](O)[C@@H](CNC(=O)N3CCOCC3)O2)no1 | i
Cc1nc2c(C(F)(F)F)cccc2nc1-c1ccc(-c2cccc(S(C)(=O)=O)c2)cc1 | i
Cc1ccc(CN2C(=O)c3cc4occc4n3CC2(C)C(=O)NC2CCC(C)CC2)cc1 (centres undefined) | i
Nc1ccc(-n2nc(C(F)(F)F)cc2C(F)(F)F)cc1 | i
COCCNC(=O)c1cc(-c2ccc(Cl)nc2)nc2c1cnn2C | i
O=C(NCc1cccnc1)C1CN(S(=O)(=O)C2CC2)CC12CCCCC2 (centres undefined) | i
CC(C)(C(=O)NCC(F)(F)C(F)(F)F)C(=O)N[C@@H]1C(=O)Nc2ccccc2-c2ccccc21 | u
Cc1nn2c(c1-c1ccccc1N1CCCC1)N(C(=O)C1CCOCC1)CCC2 | i
NC(CCCP(=O)(O)O)C(=O)O (centres undefined) | i
CC(C)CCNC(=O)c1ccc2c(=O)nc3c(-c4ccc(Cl)cc4)n[nH]n3c2c1 | i
CCOc1ccc(C(=O)NC2CCN(c3cc(-c4ccc(OC)cc4)[nH]n3)C2)cc1OCC (centres undefined) | i
CN(C)C/C=C/C(=O)Nc1ccc(C(=O)Nc2cccc(Nc3ncc(Cl)c(-c4c[nH]c5ccccc45)n3)c2)cc1 | +
CCOCC(=O)N1CCC(N2C(=O)C3(CCCCC3)C2c2ccccc2)CC1 (centres undefined) | i
C[C@H](NC(=O)Cc1cc(F)cc(F)c1)C(=O)N[C@@H]1C(=O)N(C)c2ccccc2-c2ccccc21 | u
COc1cccc(N2C(=O)c3cc4sccc4n3CC2(C)C(=O)NC2CCCCCCC2)c1 (centres undefined) | i
COCCOC(=O)C1=C(C)NC2=C(C(=O)CC(c3ccccc3OC)C2)C1c1cccc(O)c1 (centres undefined) | i
Cc1ccc(NC(=O)Cn2nc3nc(Nc4ccc(C)cc4)ccn3c2=O)cc1 | i

Screening data (PubChem BioAssay)
